# Bioassay records: PubChem BioAssay, National Center for Advancing Translational Sciences (NCATS)
# HPGD block = inhibitors of human 15-hydroxyprostaglandin dehydrogenase (HPGD). P15428. purified HPGD, NADH fluorescence kinetic, PGE2 substrate. Potency, µM, for inactives: at the highest dose activity change, negative = inhibition, actives largely listed as inhibitors. 150,000 tested, 4.3% active. AID 894; active = well fitted inhibition curve with a large enough effect (not every such curve was filed as active); inconclusive = small, poorly fitted or top-dose-only effect, or another doubt; inactive = no such curve, though single readings can be large or run the other way;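 also: top concentration of the series not given in the record; plate controls included wells without enzyme; inactives centre near -10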
# Target sequence (P15428 whole entry, looked up): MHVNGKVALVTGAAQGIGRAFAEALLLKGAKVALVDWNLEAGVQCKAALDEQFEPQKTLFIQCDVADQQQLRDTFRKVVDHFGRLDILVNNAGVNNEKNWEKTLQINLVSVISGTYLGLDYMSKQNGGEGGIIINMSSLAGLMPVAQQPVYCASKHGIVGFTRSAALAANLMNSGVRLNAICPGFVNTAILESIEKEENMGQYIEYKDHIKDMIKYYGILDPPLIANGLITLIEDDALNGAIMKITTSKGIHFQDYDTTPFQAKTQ
#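 20 nM HPGD preincubated 15 min at room temperature with compound in 50 mM Tris-HCl pH 8, 0.01% Tween 20. Started with 1 mM NAD+ and 30 uM prostaglandin E2; NADH fluorescence (360/450 nm) read 5 times over 30-s intervals, last minus first.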
# Starred values were filed as active, the others as inactive; ? = inconclusive. % is scaled to controls: 0 for no effect and ±100 for the full control effect; potency is read from the fitted curve at half-maximal effect. These rows are one share of the data; rates above refer to the full screens.
SMILES	HPGD block
CCSc1nc2c(c(=O)n1CC)SC(C)C2 (stereo not drawn)	-11.3%
COc1ccc(CNC(=O)c2cccc(N3CCCC3=O)c2)cc1	-14.2%
CCc1nnc(N2C(=O)c3ccc(Oc4ccc([N+](=O)[O-])cc4)cc3C2=O)s1	-15.5%
CCCCNC(=O)NS(=O)(=O)c1ccc(N)cc1	-12.3%
COc1cccc(C(=O)N2CCCC(c3nc(-c4cccs4)no3)C2)c1 (stereo not drawn)	-27.6%
Clc1ccc(-n2ncc3c(N4CCCCCC4)ncnc32)cc1	?
COc1ccc(C(=O)CSc2nnc(Cn3cnc4ccccc43)o2)cc1	-11.6%
CC(C)Sc1nc(N2CCOCC2)c2c(c1C#N)CC(C)(C)SC2	?
COc1cccc(N2CCN(C3CC(=O)N(c4ccc(F)c(Cl)c4)C3=O)CC2)c1 (stereo not drawn)	-27.5%
COC(=O)Nc1ccc2c(c1)OCO2	-20.7%

SMILES	HPGD block
O=C(CS(=O)CC(=O)N(CC(=O)NC1CCCC1)C1CCCC1)Nc1ccc(F)cc1 (stereo not drawn)	-6.8%
O=C(COC(=O)CCOc1ccccc1)NCc1ccco1	-4.4%
Cc1ccc(NS(=O)(=O)c2ccc3c(c2)C(=O)c2ccccc2C3=O)c(C)c1	-20.8%
CC(OC(=O)c1nn(C(C)C)c(=O)c2ccccc12)C(=O)Nc1ncc(Cl)cc1Cl (stereo not drawn)	-6.0%
O=C(Cc1ccc(Cl)cc1)NNc1c(F)c(F)cc(F)c1F	2.9%
COc1ccc2c(c1)C1NC(=S)NC(C)(O2)C1C(=O)Nc1ccc(Cl)cc1 (stereo not drawn)	-3.5%
CCCCCc1c(C)nc(N2CCc3ccccc32)[nH]c1=O	-18.0%
COc1ccccc1NS(=O)(=O)c1cccc(N=C2N=C(N)c3ccccc32)c1	-14.1%
Cc1cc(C)n(-c2nc(-c3ccc(Cl)cc3)cs2)n1	-3.1%
Cc1sc(NC(=S)NC(=O)c2cccs2)nc1-c1ccc(CC(C)C)cc1	-10.6%

SMILES	HPGD block
COc1cccc(CNC(=O)CSCc2cnn(-c3ccccc3)c2-n2cccc2)c1	-17.4%
COc1cc(CN(C)CC(=O)c2[nH]c(C)c(C(C)=O)c2C)ccc1OC(F)F	-16.7%
CC(C)(C)c1ccc(S(=O)(=O)NCCc2ccncc2)cc1	-14.1%
Cc1ccc(NC(=O)CN2C(=O)N/C(=C/c3ccc(N4CCOCC4)cc3)C2=O)cc1	-13.3%
COC(=O)COc1ccc(S(=O)(=O)Nc2ccc(C(N)=O)cc2)cc1C	-7.1%
CCOC(=O)c1c(C)[nH]c(C(=O)Cn2nnc(-c3ccc(Cl)cc3)n2)c1C	-10.7%
CCNC(=O)NC(=O)CSc1ccccc1F	3.9%
CCOc1ccc(NC(=O)NCCCn2c(C)nc3cc(C)c(C)cc32)cc1	-6.4%
CCc1c2c(nc3ccc(OC)cc13)OC(CC)C2 (stereo not drawn)	-12.8%
CCOc1ccc2[nH]c(=O)c(CN(CCO)Cc3nnnn3CCc3ccccc3)cc2c1	-17.8%

SMILES	HPGD block
Cc1ccc(N2CC(C(N)=O)CC2=O)cc1C (stereo not drawn)	-5.8%
O=C(NCCCn1ccnc1)NC(C(F)(F)F)C(F)(F)F	-6.2%
CC(=O)c1ccc2c(c1)Nc1ccccc1S2	3.7%
CCOC(=O)c1c(C)oc2ccc(OC(=O)c3cccs3)cc12	-2.4%
Cc1cc(/C=C2/NC(=O)NC2=O)c(C)n1-c1ccccn1	-18.3%
O=C(C[n+]1cc(-c2ccc(F)cc2)n2c1CCC2)Nc1nc(-c2ccccc2)cs1	-9.3%
CN1CCN(c2ccc(NC(=O)Cc3ccccc3)cc2)CC1	-7.7%
Cc1ccc(C(=O)Nc2cc(C(F)(F)F)ccc2N2CCCCC2)cc1[N+](=O)[O-]	-14.1%
CCOC(=O)Cn1c(=O)oc2cc(S(=O)(=O)N3CCC(N4CCCCC4)CC3)ccc21	-6.9%
O=C(NC(N1CCCC1)C(Cl)(Cl)Cl)c1ccccc1 (stereo not drawn)	?

SMILES	HPGD block
O=C1c2ccccc2C(=O)N1CNc1ccccc1	-1.6%
Cc1ccc(NC2=NCC(=O)N2Cc2ccc3c(c2)OCO3)c(C)c1	-1.2%
CC(C(=O)O)c1ccc(CC2CCCC2=O)cc1 (stereo not drawn)	-8.5%
COc1ccc2cc(CCN3C(=O)c4ccccc4C3=O)c(=O)[nH]c2c1	?
CC(C)COC(=O)c1nnsc1NC(=O)Nc1ccccc1	-4.1%
CC(C)Oc1ccc(C(=O)Nc2ccc(Cl)c(S(=O)(=O)Nc3ccc(Cl)cc3)c2)cc1	-26.4%
COc1cc(NC2c3ncccc3C(=O)N2Cc2ccco2)cc(OC)c1 (stereo not drawn)	-16.5%
CC(=O)N(C(C)=O)c1cccc2c(N(C(C)=O)C(C)=O)cccc12	1.1%
Clc1cccc(Cl)c1NC1=NCCC1	-28.4%
CNc1nn(-c2cccc(Cl)c2)nc1N	-17.6%

SMILES	HPGD block
COC(=O)c1ccc(CSc2nc3c(cnn3-c3ccccc3)c(=O)[nH]2)o1	-21.6%
CN(Cc1nc(-c2ccccn2)no1)S(=O)(=O)c1ccc(Br)cc1	22.4µM*
CCc1ccc(/C=C2/C(=O)N(CC)C(=S)N2C)s1	-5.2%
CCOc1ccccc1-c1nnc(SCC(=O)Nc2ccccc2)o1	-2.4%
Cc1cc2c(cc(C(=O)NCCCN3CCOCC3)n2Cc2ccc(Cl)cc2)o1	12.6µM*
CCC(c1nnnn1CCOC)N1CCN(c2cccc(C(F)(F)F)c2)CC1 (stereo not drawn)	-2.2%
CC(OC(=O)CCCOc1ccccc1)C(=O)NC(N)=O (stereo not drawn)	-8.6%
O=CN(/C=C1\Sc2ccccc2C1=O)Cc1ccccc1	-13.7%
O=C(CSc1nnc(COc2ccccc2)o1)Nc1nccs1	-2.5%
C=CCOc1c(Br)cc(/C=N\n2nnnc2N)cc1OC	-12.6%

# Printed as active in HPGD block, among the entries above:
SMILES	HPGD block
CN(Cc1nc(-c2ccccn2)no1)S(=O)(=O)c1ccc(Br)cc1	22.4µM*
Cc1cc2c(cc(C(=O)NCCCN3CCOCC3)n2Cc2ccc(Cl)cc2)o1	12.6µM*

# Continuation:
SMILES	HPGD block
[O-][n+]1onc2c1C(N1CCOCC1)CCC2N1CCOCC1 (stereo not drawn)	-5.4%
Cc1cc(N2CCN(c3ccccc3)CC2)nc(-n2nc(C)cc2C)n1	-7.3%
CCN(CC)C(=O)c1ccc(C(=O)c2c(C)cc(C)cc2C)cc1	14.1µM*
COc1ccc(S(=O)(=O)NC(CC(=O)N2CCc3ccccc32)c2ccco2)cc1 (stereo not drawn)	5.5%
Cc1cccn2cc(CNC(=O)CC3CCCC3)nc12	?
COc1ccc(NC(=O)Nc2cccs2)cc1OC	-7.1%
COCCn1c(SCC#N)nnc1-c1ccccc1O	-8.3%
COc1ccc(C)cc1NC(=O)C1CCN(S(=O)(=O)c2cccc3cccnc23)CC1	-10.8%
Cn1cc(SCC(=O)N2CCCc3ccccc32)c2ccccc21	-13.9%
COCc1c(C(=O)N/N=C/C2CC=CCC2)nnn1-c1nonc1N (stereo not drawn)	-10.3%

SMILES	HPGD block
CC1(C)O[C@@H]2[C@@H](O1)C(c1ccccc1)(c1ccccc1)OP(=O)(O)OC2(c1ccccc1)c1ccccc1	2.2%
C/C=C/Cn1c(SCc2ccccc2)nc2c1c(=O)[nH]c(=O)n2C	20µM*
CN(C)c1nc(N)c([N+](=O)[O-])c(NCc2ccccc2)n1	-13.6%
N#Cc1c(N2CCN(C(=O)c3ccco3)CC2)nc(-c2ccccc2)c2c1CCCC2	?
CCc1ccc(-c2csc3ncn(CC(=O)N4CCOCC4)c(=O)c23)cc1	-2.1%
Cc1cc(NS(=O)(=O)c2ccc(NC(=O)C(C)N3C(=O)c4ccccc4C3=O)cc2)nc(C)n1 (stereo not drawn)	1.3%
CC1CC(C)CN(CC(=O)Nc2ccc(S(N)(=O)=O)cc2)C1 (stereo not drawn)	-4.4%
COc1ccc(-c2nc(-c3ccc(NC(=O)c4ccc(Br)o4)cc3)no2)cc1OC	6.3%
O=C(O)CCC(=O)Nc1ccc2c(c1)oc1ccccc12	-7.6%
CCn1cc(/C=C/C(=O)Nc2c(C)nn(Cc3ccccc3C)c2C)cn1	-3.2%

SMILES	HPGD block
COc1ccc(C2=NO[C@@H]3C(=O)N(Cc4ccccc4)C(=O)[C@H]23)cc1OC	-18.9%
CC1(Cc2cn(CCC#N)c3ccccc23)OCCO1	-5.2%
CCN(CC)S(=O)(=O)c1cccc(NC(=O)COC(=O)C2COc3ccccc3O2)c1 (stereo not drawn)	-8.4%
CCCC1=C(C(=O)OCC)C(c2ccc(O)cc2)n2ncnc2N1 (stereo not drawn)	-2.3%
COCCCNC(=O)CCn1c(=O)c2ccccc2n(CC(=O)Nc2ccc(C)cc2C)c1=O	-1.2%
COc1cc(/C=N/NC(=O)CCc2n[nH]c(=O)[nH]c2=O)cc(OC)c1OC	?
O=C(CSCc1cnn(-c2ccccc2)c1-n1cccc1)NCc1cccs1	?
Cc1ccccc1NC(=O)CNC(=O)c1ccc(C(F)(F)F)cc1	-7.4%
C=CCn1c(=O)/c(=C/c2ccc(Cl)cc2)s/c1=C(/C#N)c1nnc2n1CCCCC2	25.1µM*
CC1=C(C(=O)Nc2ccc(C)cc2C)C(c2cccs2)NC(=S)N1 (stereo not drawn)	-7.4%

SMILES	HPGD block
O=C(CSc1nnc(-c2cc(-c3cccs3)nc3ccccc23)o1)NC1CCCCC1	?
CCOc1ccc(-c2nnc3ccc(SCC(=O)Nc4nc5ccc(C)cc5s4)nn23)cc1	?
COc1ccc(C(=O)NCC2OCCc3ccccc32)c(O)c1 (stereo not drawn)	-22.5%
COc1cc(C)c(S(=O)(=O)N2CCOCC2)cc1C	-8.8%
O=C(O)CCC(=O)NC1CCCCCCC1	-4.9%
CCCCCNc1nc(-c2ccccc2)cs1	-4.0%
CCOC(=O)C1CCCCN1Cc1ccc(F)c(Br)c1 (stereo not drawn)	-15.3%
Cc1nc(-c2cccnc2)sc1C(N)=O	-4.9%
COc1ccc(N=c2oc3c(OC)cccc3cc2C(=O)NCc2ccco2)cc1OC	-14.7%
c1ccc(-n2nnnc2SCc2cn3ccccc3n2)cc1	-7.0%

SMILES	HPGD block
Cc1nc(NC(=O)c2cc3c(s2)CCCCC3)sc1C(=O)N(C)C	-28.1%
Cc1ccc(C(=O)NC(=C(Cl)Cl)S(=O)(=O)c2ccc(C)cc2)cc1	-16.7%
COc1ccc(-c2nc3cnc(N4CCNCC4)nc3n(CCc3ccccc3)c2=O)cc1	?
CN1C(=C2C(=O)OC(C)(C)OC2=O)Sc2ccccc21	-19.4%
COc1ccc(NC(=S)NC(NC(=O)c2cccc3ccccc23)C(Cl)(Cl)Cl)c([N+](=O)[O-])c1 (stereo not drawn)	-13.2%
CC(C)CC(=O)NC(=S)Nc1cccc(NC(=O)c2ccccc2Cl)c1	-10.1%
O=C(O)CNC1=NCCC1	-5.1%
CC(C)C(NS(=O)(=O)c1ccc(Br)s1)C(=O)O (stereo not drawn)	-4.4%
C=CCNc1oc(COc2ccc(C)cc2)nc1C#N	-17.3%
Cc1csc(SCC(=O)Nc2c(C)n(C)n(-c3ccccc3)c2=O)n1	-0.7%

SMILES	HPGD block
CN(C)S(=O)(=O)c1ccc(C(=O)Nc2ccc(OCC(=O)N3CCOCC3)cc2)cc1	3.6%
O=C(Nc1nc2c(Cl)cccc2s1)c1ccc(Br)o1	3.8%
Brc1ccccc1-c1nnc(COc2ncnc3c2cnn3-c2ccccc2)o1	?
O=c1c2c(nc3nc(SCc4ccccc4)[nH]n13)CCC2	-25.5%
Cc1ccc(-c2cc(C(=O)NCc3ccccn3)c3ccccc3n2)cc1	?
CC(C)(O)C#Cc1ccccc1C(=O)NC(CC(N)=O)C(=O)O (stereo not drawn)	-3.8%
CN(C)S(=O)(=O)c1cccc(C(=O)C2=C3SC=C(c4ccccc4)N3CC2)c1	-25.2%
COc1ccc(/C=N/NC(=O)c2ccc(CN3c4cccc5cccc(c45)S3(=O)=O)cc2)cc1	?
CC1Cc2ccccc2N1CC(=O)NCc1ccc2c(c1)OCO2 (stereo not drawn)	?
COc1ccc(/C=C2\NC(=S)N(CC3CCCO3)C2=O)c(OC)c1C (stereo not drawn)	-17.4%

SMILES	HPGD block
CCC1C(=O)Nc2nc(-c3ccccc3)c(-c3ccccc3)n2N=C1C (stereo not drawn)	-6.6%
O=[N+]([O-])c1c(NCCO)cc(N2CCC3(CC2)OCCO3)c2nonc12	-29.9%
COc1ccc(S(=O)(=O)Nc2ccc(NC(C)=O)cc2)cc1OC	-9.0%
COC(=O)c1ccc(C(NC(=O)OCc2ccccc2)/C(=C/[C@@H](C)C(=O)NCc2ccc(-c3ccccc3)cc2)c2cccnc2)cc1 (stereo partly drawn)	-11.6%
Cc1ccc(OCc2nnc(SCC(=O)c3cccs3)n2-c2ccccc2)cc1C	-19.2%
Cc1ncc2c(c1OC(=O)c1ccccc1)COC(C)(C)OC2	-10.1%

# Rewritten with each value named: 3 of the compounds above.
> COc1ccc(S(=O)(=O)Nc2ccc(NC(C)=O)cc2)cc1OC
  HPGD block: -9.0%

> CCC1C(=O)Nc2nc(-c3ccccc3)c(-c3ccccc3)n2N=C1C (stereo not drawn)
  HPGD block: -6.6%

> O=[N+]([O-])c1c(NCCO)cc(N2CCC3(CC2)OCCO3)c2nonc12
  HPGD block: -29.9%
